Screening data (PubChem BioAssay)
HPGD inh: HPGD (human) dehydrogenase inhibition. P15428. AID 894. 4.3% of 150,000 active. Potency, µM, inactives show top-dose activity change, negative = inhibition, usual class: inhibitors. purified HPGD, NADH fluorescence kinetic, PGE2 substrate; active = well fitted inhibition curve with a large enough effect (not every such curve was filed as active); inconclusive = small, poorly fitted or top-dose-only effect, or another doubt; inactive = no such curve, though single readings can be large or run the other way;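 further: top concentration of the series not given in the record; plate controls included wells without enzyme; inactives centre near -10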
Target sequence (P15428 whole entry, looked up): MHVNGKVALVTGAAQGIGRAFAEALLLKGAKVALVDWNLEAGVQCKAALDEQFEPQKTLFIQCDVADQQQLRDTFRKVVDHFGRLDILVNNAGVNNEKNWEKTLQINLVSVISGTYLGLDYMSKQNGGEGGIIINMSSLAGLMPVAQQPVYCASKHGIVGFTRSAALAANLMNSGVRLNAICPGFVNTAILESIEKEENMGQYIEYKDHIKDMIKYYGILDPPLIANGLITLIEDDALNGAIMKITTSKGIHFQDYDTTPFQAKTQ
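20 nM HPGD preincubated 15 min at room temperature with compound in 50 mM Tris-HCl pH 8, 0.01% Tween 20. Started with 1 mM NAD+ and 30 uM prostaglandin E2; NADH fluorescence (360/450 nm) read 5 times over 30-s intervals, last minus first.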
An asterisk follows results filed as active; ? = inconclusive. On the % scale 0 is the no-effect control and ±100 the full control effect; potency means the concentration at half of the fitted maximal effect.

no.	structure	HPGD inh
1	CCCS(=O)(=O)N1CCCC(C(=O)N2CCC(Cc3ccccc3)CC2)C1 (stereo unspecified)	-4%
2	CC1(C)[C@@H]2CC[C@@]1(CS(=O)(=O)Nc1ccccc1)C(=O)C2	-4%
3	COC(=O)c1ccc(C)cc1	-8%
4	CC1(C)C(C=C(Cl)Cl)C1C(=O)OCc1cccc(Oc2ccccc2)c1 (stereo unspecified)	-7%
5	CN(C)CCCn1c2c3ccccc3ccc2c2oc(=O)c3ccccc3c21	-15%
6	CCOC(=O)C(C(=O)NCc1ccc(F)cc1)c1ncc(C(F)(F)F)cc1Cl (stereo unspecified)	-9%
7	O=C(CSC1CC(=O)N(CCc2ccccc2)C1=O)Nc1cccc(Cl)c1 (stereo unspecified)	7.9µM*
8	COc1ccc(NC(=O)c2cc3ccccn3n2)cc1	-9%
9	CSc1nc(NC(C)=O)nc(C)c1Cl	2%
10	CCN(CC)S(=O)(=O)c1ccc2[nH]cc(C(=O)NCCC3=CCCCC3)c(=O)c2c1	?
11	Cc1c(Oc2ccc(C(F)(F)F)cc2[N+](=O)[O-])ccc2c3c(c(=O)oc12)CCC3	?
12	Cc1ccc2[nH]c(=O)c(-c3noc(C(C)C)n3)cc2c1	?
13	O=C(/C=C/Nc1ccc([N+](=O)[O-])cc1Br)c1cccc2ccccc12	-21%
14	CC1(C)CC(=O)C2=C(C1)NC(SCC(=O)Nc1ccccc1)=C(C#N)C21CCCCC1	?
15	O=S(=O)(NCCC1=CCCCC1)c1cccc2nsnc12	?
16	Cc1ccc(-c2csc3nc(C)n(-n4cccc4)c(=O)c23)o1	-12%
17	COC(=O)C1=C(C)N(Cc2ccccc2)C(=O)N[C@H]1c1cccc(F)c1	-2%
18	NC(=O)C1(N2CCCCC2)CCN(C(=S)Nc2ccc(Cl)cc2)CC1	-4%
19	Cc1ccc2nsnc2c1S(=O)(=O)NC1CC1	-12%
20	COc1cccc(NC(=O)/C=C/c2ccccc2[N+](=O)[O-])c1	-25%
21	N#CCc1ccc(C(=O)c2ccccc2)s1	28µM*
22	O=C1N=C(N2CCN(c3ccccc3)CC2)SC1Cc1ccccc1 (stereo unspecified)	-8%
23	N[C@H]1CONC1=O	-8%
24	CC(C)C(=O)Nc1ccc(NC(=O)c2cccs2)cn1	0%
25	CCN(CC)CCn1c(OC)cc(=O)[nH]c1=O	-7%
26	COc1ccccc1C(CNC(=O)c1ccc(S(=O)(=O)NCc2ccco2)cc1)N(C)C (stereo unspecified)	-7%
27	COc1ccccc1OCC(=O)N1CC2(C)CC1CC(C)(C)C2 (stereo unspecified)	-14%
28	Fc1ccc(Br)cc1C1C=C(c2ccc(Br)cc2)Nc2ncnn21 (stereo unspecified)	-1%
29	CCOc1ccc(OCCOCCNCCOC)cc1	3%
30	O=c1c2cn[nH]c2nc(SCc2ccc3c(c2)OCCO3)n1-c1ccccc1	-19%
31	COc1ccc(C(=O)c2c(C)c3ccccc3n2CC(O)CNC(C)C)cc1 (stereo unspecified)	-10%
32	CC(C)(C)OC(=O)N1CCCC1C(=O)NC(Cc1ccccc1)C(=O)O (stereo unspecified)	-4%
33	Cc1ccc(C2C(C#N)=C(N)SC(N)=C2C#N)c(C)c1	?
34	Cc1nnc(SCC(=O)Nc2cc(C(F)(F)F)ccc2N2CCOCC2)o1	-5%
35	CCN(CC)C(=O)C1CCCN(C/C(C)=C/c2ccccc2)C1 (stereo unspecified)	-16%
36	CCN(c1ccc(NC(=O)COC(=O)CCc2nc3ccccc3n2-c2ccccc2)cc1)C(C)C	-16%
37	CCOc1cc(C)c(Cl)cc1S(=O)(=O)NCc1ccc2c(c1)OCO2	-10%
38	COc1ccc(C(C(=O)NC2CCCC2)N(Cc2ccc(F)cc2)C(=O)c2ccn[nH]2)cc1OC (stereo unspecified)	-3%
39	Cc1nc2cc(NC(=O)N3CCN(c4ccccn4)CC3)ccc2o1	?
40	Cc1nc(NC(C)C)c2oc3ccccc3c2n1	-12%
41	COc1ccc(C(=O)Oc2cccnc2)cc1	-6%
42	Cc1cc(N2CCCCC2)c(F)cc1[N+](=O)[O-]	-12%
43	CCc1cccc2c(-c3ccccc3)c3c(nc12)OCC3	?
44	COC(=O)C(C)Sc1n[nH]c(=S)s1 (stereo unspecified)	25µM*
45	COc1ccc2nc3ccccc3nc2c1NC(=O)c1ccc(Cl)cc1Cl	-8%
46	CCc1ccccc1NC(=O)c1cc(-c2cccc(O)c2)on1	-16%
47	Cc1cc(C)c2c(c1)[C@@H]1C=CC[C@@H]1[C@H](c1ccc(S(=O)(=O)N3CCOCC3)cc1)N2	25µM*
48	Cc1ccccc1CN1CCN(S(C)(=O)=O)CC1	-18%
49	CCN1C(=O)/C(=C/c2ccc(C)o2)N(C)C1=S	?
50	Cc1ccc(S(=O)(=O)Oc2ccc(C(c3c(C)[nH][nH]c3=O)c3c(C)[nH][nH]c3=O)cc2)cc1	-9%
51	Cc1ccc(C(=O)N(CC(=O)NC2CCCC2)Cc2cccs2)s1	-19%
52	COc1cc2c(C(=O)c3ccccc3)c3c4c(cc(OC)c(OC)c4c2cc1OC)CCN3C	-16%
53	CCCn1c(SCC(=O)Nc2ccc(OCC)cc2)nnc1C(C)C	-19%
54	CC(/C=N/NC(=O)c1cc(-c2ccc(C)s2)[nH]n1)=C\c1ccccc1	-24%
55	O=C(CNC(=S)N(Cc1ccccc1)Cc1cccnc1)NCCc1ccccc1	-10%
56	CC(C)C(=O)c1cn(CC(=O)NCc2ccco2)c2ccccc12	-15%
57	CCSc1nnc2c(n1)OC=Nc1ccc(Br)cc1-2	1%
58	CSc1ccccc1NC(=O)COc1ccc(S(=O)(=O)N2CCCC2)cc1	1%
59	Cc1cc(=O)[nH]c(N/N=C/c2ccccn2)n1	-18%
60	Cc1cc(N2CCN(c3ccccn3)CC2)n2c(nc3ccccc32)c1C#N	-6%

The list goes on.
no.	structure	HPGD inh
61	CCN1CCN(c2nc(-c3ccccn3)nc3ccccc23)CC1	-8%
62	Cc1cc(Cl)c(S(=O)(=O)NCC2CCCO2)cc1OCC(N)=O (stereo unspecified)	-4%
63	COC(=O)Nc1ccc(OCc2ccccc2)cc1	-16%
64	CCC(=O)N1CCN(c2ccc(NC(=O)c3ccco3)cc2)CC1	-15%
65	O=c1c2cc(Cl)ccc2[nH]c(=S)n1Cc1cccs1	-7%
66	COC(=O)c1cccc(-n2cnnn2)c1	-8%
67	COC(=O)n1c(=O)oc2cc(S(=O)(=O)N3CCCCC3)ccc21	-11%
68	O=C(NC(=S)NNC(=O)c1ccc(Cl)cc1Cl)c1cccnc1	?
69	Cc1ccc(CCc2nnc(SCC(=O)Nc3cccc(Cl)c3)n2-c2ccccc2)o1	-13%
70	CC(=O)NC1CC2CCC(C1)N2Cc1ccc(C)cc1 (stereo unspecified)	-1%
71	COc1ccc(Nc2nc(CC(C)=O)ns2)cc1OC	-8%
72	CCOC(=O)N1CCC(N2Cc3cccc(C(=O)NCC4CCN(CC(C)C)C4)c3C2=O)CC1 (stereo unspecified)	-22%

The closing 3 compounds of the section before open the next one.
no.	structure	HPGD inh
70	CC(=O)NC1CC2CCC(C1)N2Cc1ccc(C)cc1 (stereo unspecified)	-1%
71	COc1ccc(Nc2nc(CC(C)=O)ns2)cc1OC	-8%
72	CCOC(=O)N1CCC(N2Cc3cccc(C(=O)NCC4CCN(CC(C)C)C4)c3C2=O)CC1 (stereo unspecified)	-22%
73	CC1=NN(C(=O)c2c(Br)c(C)nn2C)C(O)(C(F)(F)F)C1 (stereo unspecified)	-16%
74	Cc1nc(C)c(-c2csc(Nc3cccnc3)n2)s1	?
75	C=CCNCCCCOc1ccccc1-c1ccccc1	-3%
76	c1ccc2c(c1)nc(N1CCOCC1)c1c3ccccc3[nH]c21	?
77	Cn1c(=O)c2c(nc(Br)n2CCSc2ncccn2)n(C)c1=O	-12%
78	CC12CC(NC(=O)N1Cc1ccccc1)c1ccccc1O2 (stereo unspecified)	-1%
79	CCn1c(=O)c(C(=O)Nc2ccccc2C)c(O)c2ccccc21	?
80	C[C@@H]1NC(=O)c2cc([N+](=O)[O-])cc(I)c2OCC[C@@H](C(=O)NC(CC(=O)O)C(N)=O)NC(=O)[C@H](CCC(=O)O)NC1=O (stereo partly specified)	-7%
81	O=c1cc(CN2CCN(c3ccccc3)CC2)c2cc(O)c(-c3ccccc3)cc2o1	-20%
82	COc1cc(C(C)=O)ccc1COc1ccc(C(=O)OCC(=O)NC2CCS(=O)(=O)C2)cc1OC (stereo unspecified)	-8%
83	CSc1nc2c(cc1C#N)CCCCC2	-4%
84	Cc1nc(Nc2ccc3c(c2)OCCO3)c2nnn(Cc3ccccc3Cl)c2n1	?
85	COc1ccc(-c2nc3c(c4nnc(SC(C)C(=O)Nc5ccccc5)n24)COC(C)(C)C3)cc1 (stereo unspecified)	?
86	Cc1ccc(OCC(=O)NCc2ccco2)cc1C	20µM*
87	CCN(CC)CCNc1nc2c(c(=O)[nH]c(=O)n2C)n1CC(O)COc1ccc(Cl)cc1Cl (stereo unspecified)	-20%
88	Cc1c(CN2CCC(C)CC2)c(=O)n(-c2ccccc2)n1C	0%
89	CCOC(=O)c1c(NC(=O)Nc2ccccc2)sc(C)c1C	-9%
90	COC(=O)c1ccc(COc2ccccc2/C=C(\C#N)C(=O)Nc2ccc(C)cc2)cc1	-3%
91	Cc1ccc(-c2nnc(CSc3nncn3N)o2)cc1	10%
92	Cc1cc(=O)[nH]c(N2CCc3ccccc3C2)n1	-16%
93	COc1ccc(C2(C(=O)O)CCCC2)cc1	-11%
94	CC1CN(C(=O)c2ccccc2)OC(c2ccc3c(c2)OCO3)O1 (stereo unspecified)	-20%
95	CC1CCc2nn(CC(=O)NCc3ccc(F)cc3)cc2C1 (stereo unspecified)	-1%
96	COc1ccc2nc(NC(=O)c3ccc(NS(=O)(=O)c4cccs4)cc3)sc2c1	?
97	CCOc1ccccc1N/C=C/C(=O)C(C)(C)C	-19%
98	CCNC(=O)NC(=O)COC(=O)c1ccccc1SCC(=O)NC(=O)NCC	?
99	O=C(Nc1ccccc1Cl)c1ccc2c(c1)N(Cc1ccc(F)cc1)C(=O)CS2=O (stereo unspecified)	2%
100	N=c1c(C(=O)NC2CCCC2)cc2c(=O)n3ccccc3nc2n1C1CCCC1	?
101	COc1ccc(C(=O)N2CCC3(CC2)CN(c2ccccc2)C3)cc1	-7%
102	COc1ccc(/C=N/NC(=S)Nc2cccc(C(=O)O)c2)cc1OC	-29%
103	C/C(=N\Nc1nccnc1Cl)c1ccc([N+](=O)[O-])cc1	-6%
104	CC(=O)NCCn1c(SCc2cc(F)ccc2F)nc2ccccc2c1=O	-18%
105	CCCOC(=O)Nc1ccccc1C(N)=O	-9%
106	COc1ccccc1C(=O)N1CCN(C(=O)COc2cccc(C)c2)CC1	-6%
107	O=C(c1cc(-c2ccccc2)nc2ccccc12)N1CCCc2ccccc21	-9%
108	COC(=O)c1c(C)oc2c1cc(NS(=O)(=O)c1cccs1)c1ccccc12	-2%
109	COc1cc2c(C#N)c(N3CCOCC3)nc(N)c2c(N)n1	?
110	Cc1nnc(C)n1/N=C/C=C/c1ccccc1	-14%
111	CCNC(=S)N1CCN(CCN=CC2=C(O)CC(c3ccco3)CC2=O)CC1 (stereo unspecified)	-7%
112	CCCS(=O)(=O)C(=C1NCCO1)S(=O)(=O)CCC	-14%
113	O=C(COC(=O)/C=C/c1cccc(Cl)c1)Nc1ccccc1-c1ccccc1	-11%
114	Cc1cccc(C)c1OC(=O)CN(c1ccc(Cl)cc1)S(C)(=O)=O	-16%
115	C1CN(c2nc3nonc3nc2N2CCOCC2)CCO1	-15%
116	COc1ccc(OC(C)C(=O)NCCc2nc3ccccc3[nH]2)cc1 (stereo unspecified)	0%
117	Cc1cc(NC(=O)CSc2nc(-c3ccccc3)cs2)no1	-7%
118	CCSc1nc(=S)n(Cc2ccccc2)c(C)c1C(C)=O	0%
119	CC(=O)c1ccc(NC(=O)Nc2ccc(Cl)cc2)cc1	-10%
120	CCOC(=O)C1CCN(C(=O)CSC2=NCCS2)CC1	-12%

Rewritten field by field: part of the list above
82	COc1cc(C(C)=O)ccc1COc1ccc(C(=O)OCC(=O)NC2CCS(=O)(=O)C2)cc1OC (stereo unspecified)
  HPGD inh: -8%
83	CSc1nc2c(cc1C#N)CCCCC2
  HPGD inh: -4%

(next part)
no.	structure	HPGD inh
121	COc1ccc(OCC(=O)c2c(O)c3ccccc3oc2=O)cc1	22µM*
122	O=C(Nc1ccc(Cl)c(Cl)c1)C1=Cc2ccccc2OC1	?
123	O=C1COc2ccc(C(=O)c3ccccc3C(=O)O)cc2N1	-1%
124	COc1ccccc1NC(=O)CSc1ncn(-c2ccccc2)n1	-29%
125	COc1ccc(-c2noc(CCC(=O)NC3CCCCC3)n2)cc1OC	35µM*
126	COc1ccc(/C=C/C(=O)c2ccc3ccccc3c2O)cc1CN1CCOCC1	2%

Fetched one by one from the list above, 6 records:
no.	structure	HPGD inh
125	COc1ccc(-c2noc(CCC(=O)NC3CCCCC3)n2)cc1OC	35µM*
122	O=C(Nc1ccc(Cl)c(Cl)c1)C1=Cc2ccccc2OC1	?
121	COc1ccc(OCC(=O)c2c(O)c3ccccc3oc2=O)cc1	22µM*
126	COc1ccc(/C=C/C(=O)c2ccc3ccccc3c2O)cc1CN1CCOCC1	2%
123	O=C1COc2ccc(C(=O)c3ccccc3C(=O)O)cc2N1	-1%
124	COc1ccccc1NC(=O)CSc1ncn(-c2ccccc2)n1	-29%

Only part of the results is shown; the hit share may differ from the screen's.
